LANA-nucl inh: LANA-nucleosome interaction inhibition | FITC-LANA1-23 / chicken nucleosome fluorescence polarization; active compounds read low | z-score (test concentration not listed) | 51,000 tested, 0.3% active;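 active = both repeat wells score below -2 in polarization z-score versus plate sample wells, excluding overly bright wells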;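 also: 100 nL library stock added to about 30 µL; numbers are from one replicate; some results filed as inactive read as strong as hits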
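Material: Purified chicken nucleosomes with FITC-labelled LANA N-terminal peptide (1-23) | Reagent: 50 nM FITC-LANA1-23 probe | Medium: TEN-BT buffer, pH 7.5 | Times: 10–45 min incubation at room temperature | Detection: Fluorescence polarization | Replication: Duplicates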
Ab BasE inh: inhibitors of Acinetobacter baumannii siderophore enzyme BasE | purified BasE, fluorescence polarization binding displacement | inhibition, % (concentration not given with the values) | 84,000 tested, 0.1% active | AID 485350;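 active = both replicates above 25% with normal brightness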;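 also: 0% = negative plate control signal and 100% = positive plate control signal; stock transfer was 100 nL into about 30 µL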
Numbers without * were called inactive; . = no result given; & = joins results of further samples. The list is partial. The share of hits here may be higher or lower than overall.

SMILES	LANA-nucl inh	Ab BasE inh
CCOC(=O)C1=C(C(C)c2ccccc2)NC(=O)NC1C (configuration not stated)	.	2.2
COc1ccc(/C=C2/C(=N)N3N=C(Cc4ccccc4)SC3=NC2=O)cc1OC	.	-5.1
CCCCS(=O)(=O)Nc1ccc(C(=O)NCC2CCCO2)cc1 (configuration not stated)	-0.283	2.2
Clc1ncnc2sc3c(c12)CCCC3	0.228	3.0
CCOC(=O)Cc1c(C)nc2cc(C)nn2c1C	-0.067	1.6
Cn1cnnc1Sc1ccc(Cl)cc1NS(=O)(=O)c1ccc2c(c1)OCCO2	.	-0.2
CN(CCc1ccccn1)C(=O)c1nn2c(C(F)(F)F)cc(-c3ccco3)nc2c1Cl	0.075	1.9
CCN1C(=O)N(CC)C2NC(=O)NC21 (configuration not stated)	0.793	-3.6
O=C(CN1C(=O)c2ccc(Br)cc2C1=O)OC1CCCCC1	.	3.4
CCOCCn1c(=NC(=O)C(C)C)sc2cc(C)ccc21	-0.048	1.5
Cc1cc(C)cc(-n2ccn3c(CCC(=O)O)nnc3c2=O)c1	-0.038	-1.3
COC(=O)c1ccccc1NC(=O)COC(=O)c1cc2ccccc2o1	.	-4.0
CCNC(=O)c1cccc2c1-c1ccccc1C2=O	-0.351	1.3
O=C(Cn1cnc2c(cnn2-c2ccccc2)c1=O)c1ccccc1	-0.105	1.3
CCCCn1c(CCC(=O)O)ccc1-c1cccs1	-0.485	3.4
CN(CC(=O)O)Cc1nc2ccccc2[nH]1	-0.145	-0.2
CN(C)CCN1CCNCC1	0.998	0.9
CCCCn1c(C2CCCO2)nc2ccccc21 (configuration not stated)	1.67	-4.0
COc1cccc(-c2nnc(SCN3C(=O)c4ccccc4C3=O)n2Cc2ccco2)c1	.	-0.5
COC(=O)Nc1c(-c2ccccc2)nc2ccc(C)cn12	0.037	0.5
C=Cc1c(C)c2cc3[nH]c(cc4nc(cc5nc(cc1[nH]2)C(C)=C5CCC(=O)O)C(CCC(=O)O)=C4C)c(C)c3C=C	-0.696	4.6
O=C(NCC(=O)N1CCN(S(=O)(=O)/C=C/c2ccccc2)CC1)c1ccc(Br)o1	.	-0.6
CCOC(=O)NN=C1CN(S(=O)(=O)c2ccc(C)cc2)C1	-1.15	1.2
CC(C)(C)OC(=O)N1CCCN(C(=O)c2cccnc2Oc2ccc(Cl)cc2)CC1	.	-1.4
O=C(Nc1ccccc1)c1cnc[nH]1	0.416	0.4&0.4
Cc1nc(N)nc(Sc2ccc(Cl)cc2)c1Cl	-0.167	.
CNC(=O)/C(C#N)=C1\SC(CCO)C(=O)N1c1ccccc1 (configuration not stated)	0.36	-1.0
CCN(C(=O)C(C)Sc1ccc(S(=O)(=O)N2CCOCC2)cn1)c1ccccc1 (configuration not stated)	.	-1.6
NNc1nnc(-c2ccccc2)c(-c2ccccc2)n1	0.266	-2.1
S=C(c1cccc(Oc2ccccc2)c1)N1CCOCC1	-0.987	1.6

Some of the entries so far, with values under each structure.
Second line of a record – LANA-nucl inh	Ab BasE inh
CN(CC(=O)O)Cc1nc2ccccc2[nH]1
  -0.145	-0.2
CN(C)CCN1CCNCC1
  0.998	0.9
CCCCn1c(C2CCCO2)nc2ccccc21 (configuration not stated)
  1.67	-4.0
COc1cccc(-c2nnc(SCN3C(=O)c4ccccc4C3=O)n2Cc2ccco2)c1
  .	-0.5
COC(=O)Nc1c(-c2ccccc2)nc2ccc(C)cn12
  0.037	0.5
C=Cc1c(C)c2cc3[nH]c(cc4nc(cc5nc(cc1[nH]2)C(C)=C5CCC(=O)O)C(CCC(=O)O)=C4C)c(C)c3C=C
  -0.696	4.6
O=C(NCC(=O)N1CCN(S(=O)(=O)/C=C/c2ccccc2)CC1)c1ccc(Br)o1
  .	-0.6

(cont.)
SMILES	LANA-nucl inh	Ab BasE inh
Cc1n[nH]c(=O)c2ccccc12	0.362	0.5&2.1
CCOC(=O)c1c(SC)n(-c2ccccc2)c(=S)n(-c2ccccc2)c1=O	.	0.1
O=C1NCCN1CCNS(=O)(=O)c1ccc2c(c1)CCO2	0.137	-1.9
Cc1ccc(-n2c(SCc3cc(=O)n4ccccc4n3)nc3n[nH]c(C)c3c2=N)cc1Cl	-0.556	-0.1
O=C1CC(C(=O)N2CCN(c3ccccc3)CC2)CN1Cc1ccco1 (configuration not stated)	.	3.9
COc1ccc(Cn2nc(C)c(N)c2C)cc1OC	1.25	-1.7
O=C1/C(=C/c2ccc(O)cc2)SC(=S)N1CC1CCCO1 (configuration not stated)	.	-15.7
O=S(=O)(c1ccc(-c2ccno2)s1)N1CCN(c2ccncc2)CC1	0.499	1.4
O=C(Oc1cc(=O)oc2c1c(=O)n1c3c(cccc23)CCC1)c1ccccc1	-0.234	-0.1
CCN(C(=S)NC(=O)c1ccco1)c1cccc2ccccc12	.	-2.8
O=C(c1ccc(S(=O)(=O)NCc2ccco2)cc1)N1CCc2ccccc21	.	-3.7
O=C(O)C1CCN(S(=O)(=O)c2ccc3ccccc3c2)CC1	.	1.8
O=C(O)CN1C(=O)/C(=C\c2ccccc2)SC1=S	0.174	-1.1
CCCNC(=O)NS(=O)(=O)c1ccc(Cl)cc1	0.233&1.34&0.45	-3.4&-0.3
CCOC(=O)C1=C(C)NC(C)=C(C(=O)OCC)C1C(=O)OCc1cc(=O)n2cc(C)ccc2n1	.	1.0
O=C(/C=C/C=C/c1ccccc1)CC1(O)C(=O)Nc2ccc(Br)cc21 (configuration not stated)	.	1.4
CC1CCN(C(=O)C(C)Sc2nnc(Nc3ccccc3F)s2)CC1 (configuration not stated)	.	0.2
O=C(Nc1ccc2c(c1)OCCO2)Oc1ccccc1	.	0.8
CCc1nnc(NC(=O)C(C)c2c(C)n[nH]c2C)s1 (configuration not stated)	-0.643	0.5
O=C(Nc1ccc(F)cc1)n1ncc2cc(Cl)ccc21	2.88	-0.1
Cc1occc1-c1nnc(SCC(=O)Nc2ccc3c(c2)OCO3)n1CC(C)C	-0.458	-1.4
NC(=O)Cn1c(COC(=O)Cc2coc3ccc4ccccc4c23)nc2ccccc2c1=O	.	-0.2
CCOc1cc(C(=O)OCc2nnc(-c3ccccc3)o2)ccc1OCC(=O)N1CCCCC1	.	-1.5
O=C(NCCCN1CCOCC1)Nc1ccc(Cl)cc1	0.299	0.1
Cc1cc(C)nc(N(C#N)CCOc2ccc(Cl)cc2)n1	-0.057	0.2
CCC(=O)N=c1sc2ccccc2n1CC(=O)OC	1.11	1.4
CCOc1ccc(N/C=C(\C#N)c2nc3ccccc3[nH]2)cc1	-0.14	-3.1
O=C1C=CC(=O)N1C1CC1	.	1.1
CN(C)/C=C(\C#N)C(=O)Nc1ccccc1	0.032	0.0
O=C(COC(=O)c1cc(=O)c2ccccc2o1)Nc1ccc(S(=O)(=O)N2CCCC2)cc1	.	2.2
COc1cccc(NC(=O)N2CCN(C3c4ccccc4-c4ccccc43)CC2)c1	-1.61	.
CCCCc1nnc(NC(=O)CN2C(=O)c3ccccc3C2=O)s1	0.406	-0.8
CCc1ccc(C(=O)NCc2nnc(SC)n2C)cc1	-0.172	0.6
Cc1nnc(SCc2ccccc2F)n1C(C)C	-0.68	1.3
Cc1cccc(C(=O)OCCN2C(=O)c3ccccc3C2=O)c1	.	0.7
Cc1ccc(S(=O)(=O)N=S(c2ccccc2)c2ccccc2)cc1	0.342	2.4
CCOC(=O)Cc1cc(=O)[nH]c(Nc2nc3ccccc3o2)n1	0.595	2.5
O=C(Nc1ccc(N2CCCCC2)cc1)C1COc2ccccc2O1 (configuration not stated)	.	0.7
O=c1cc[nH]n1-c1cccc(Cl)n1	2.3	.
COc1ccc(Cc2nn3c(C)nnc3s2)cc1	1.12	-0.5
CCCN1C(=O)C2(Nc3ccccc3-c3nc4ccccc4n32)c2ccccc21 (configuration not stated)	-1.08	0.4
Cc1ccc(-c2ccc(/C=C3/SC(=S)N(C)C3=O)o2)cc1Cl	.	2.0
CCN(C(C)=O)c1nc(COC(=O)c2ccc3c(c2)OCCO3)cs1	.	1.6
CN(C(=O)CSc1n[nH]c(N)n1)c1ccccc1	.	2.1
COc1ccc2[nH]c(C(=O)N3CCCN(Cc4ccc(F)cc4)CC3)cc2c1	-0.861	-1.4
COc1ccc(/C=C2/N=C3SC(C)C(=O)N3C2=O)cc1 (configuration not stated)	.	-2.2
Cc1ccccc1NC(=O)CSc1nccc(=O)[nH]1	1.24	0.7
Nc1cccc(-c2ncn[nH]2)c1	-0.958	-0.3
O=C(CSc1nccc(-c2cccs2)n1)Nc1ccccc1	.	1.7
O=C1NC(c2ccccc2)(C(F)(F)F)SC2=CCCCCN12 (configuration not stated)	.	-0.6
O=C1COc2ccc(C(=O)COC(=O)c3ccc(S(=O)(=O)N4CCOCC4)cc3)cc2N1	.	-0.3
O=C(OCC(=O)c1c[nH]c2ccccc12)c1ccc(N2CCCC2=O)cc1	.	-0.6
O=C(O)COCC1CCCCO1 (configuration not stated)	0.138	0.3
CC(=O)Nc1c(I)c(C(=O)NC2[C@H](O)OC(CO)[C@@H](O)[C@H]2O)c(I)c(N(C)C(C)=O)c1I (some centres not stated)	-0.129	-3.9
CC1(C)Nc2ccccc2NC1=O	-0.43	3.4
Cc1cc(OCCON2C(=O)CCC2=O)c(C)cc1Cl	0.203	-4.1
CCCn1c(=N)n(CC(O)c2ccccc2)c2ccccc21 (configuration not stated)	.	-0.3
COc1cccc(N2CC(=O)N(NC(=O)NC3CCCCC3)CC2=O)c1	-0.028	3.9
OCCn1nnnc1-c1ccccc1	-0.699	-1.7
CCN(CC)CCCNc1nnc(C)c(=O)[nH]1	-0.32	-0.3

New compounds follow.
SMILES	LANA-nucl inh	Ab BasE inh
O=S(=O)(NC(=S)Nc1ccc(Cl)c(Cl)c1)c1ccccc1	.	2.3
c1ccc(-n2nnnc2Sc2nnc3n2CCCCC3)cc1	.	0.0
CCC(CC)NCc1ccc(OC)c(C)c1OC	-0.75	-0.9
Clc1nc2ccccc2cc1C=NCc1ccco1	.	2.3
O=S(=O)(CC(O)COc1ccc(Br)cc1)c1ccccc1 (configuration not stated)	-0.844	2.2
CN1CCN(c2ccc(Cl)cc2NC(=S)Nc2cccnc2)CC1	.	2.1
O=c1c2c(-c3cccs3)csc2nc(CN2CCOCC2)n1Cc1ncc(-c2ccccc2)o1	.	-0.7
COc1nc2ccccc2nc1CCC(=O)Nc1ccccc1	0.403	1.7
CC(/C=C/c1ccccc1)=N\NC(N)=S	-0.848	-0.4
Cc1cc(C)n2nc(SCc3nc(N)nc(Nc4ccccc4C)n3)nc2n1	.	2.4
CCOc1ccc(NC(=O)C2CCN(S(=O)(=O)CC)CC2)cc1	-0.864	-0.4
CCNc1nc(N(C#N)CC)nc(N2CCOCC2)n1	-0.575	5.2
Cc1ccc2[nH]c3c(c2c1)SC(C)(C)CC3=O	-0.4	-0.3
O=C(Cc1cccs1)Oc1ccc2oc3ccccc3c2c1	.	-1.2
COc1ccc2c(c1)c1nc(C)sc1n2CCN1CCOCC1	-0.672	4.5

Retrieved by structure from above:
SMILES	LANA-nucl inh	Ab BasE inh
O=C(Cc1cccs1)Oc1ccc2oc3ccccc3c2c1	.	-1.2
COc1ccc2c(c1)c1nc(C)sc1n2CCN1CCOCC1	-0.672	4.5
Cc1cc(C)n2nc(SCc3nc(N)nc(Nc4ccccc4C)n3)nc2n1	.	2.4
CCC(CC)NCc1ccc(OC)c(C)c1OC	-0.75	-0.9
O=S(=O)(NC(=S)Nc1ccc(Cl)c(Cl)c1)c1ccccc1	.	2.3
c1ccc(-n2nnnc2Sc2nnc3n2CCCCC3)cc1	.	0.0

Carrying on.
SMILES	LANA-nucl inh	Ab BasE inh
CCOC(=O)c1cccc(C(=O)Nc2cccc(NC(=O)c3cccc(C(=O)OCC)n3)n2)n1	-0.0505	1.3
COc1cc(C)c(S(=O)(=O)Nc2cccc(-c3ccc(N4CCOCC4)nn3)c2)cc1C	-0.595	-2.5
Cc1oc2ncnc(N3CCOCC3)c2c1C(=O)NCC1CCCO1 (configuration not stated)	.	-0.1
CN(Cc1ccccc1)S(=O)(=O)c1ccc2c3c(cccc13)C(=O)N2	-0.966	1.2
CCOC(=O)c1cc(-c2ccc(OC)c(S(=O)(=O)N3CC(C)CSc4ccccc43)c2)on1 (configuration not stated)	4.28	-13.6
O=C(COC(=O)c1cccc(O)c1)c1ccc(F)cc1	.	4.1
CN(C)c1nc(N(C)C)nc(N(C#N)S(=O)(=O)c2ccccc2Cl)n1	0.123	0.6
CCCN1CCC(NC(=S)NC2CCCC2)CC1	1.16	-2.0
CC(NC(=O)c1ccc(-n2ccc3ccccc32)s1)c1ccc2c(c1)OCCO2 (configuration not stated)	0.444	0.6
O=c1[nH]c2ccc(Cl)cc2c(-c2ccccc2)c1N1CCOCC1	-0.184	1.7
COc1cc(OC)cc(C(=O)c2coc3ccc(O)c(CN4CCOCC4)c23)c1	0.213	0.8
Cc1ccc2c(CC(=O)O)coc2c1C	-0.963	1.5
C#CCOC(=O)Nc1ccccc1OC	0.363	1.9
CCOC(=O)c1cnc(Sc2ccc(F)c(Cl)c2)nc1C(F)(F)F	.	1.0
Cc1nn(C)c2c1S(=O)(=O)N=C(SCc1c(F)cccc1Cl)S2	.	0.7
CC(=O)OC/C=C(C)/C=C/C=C(C)/C=C/C1=C(C)CCCC1(C)C	0.0545&0.726	-2.6
c1ccc(N2CCN(c3ccccn3)CC2)nc1	.	1.9
Nc1ccc2nsnc2c1	-3.07*	25.7
NC(=O)CCNc1ccccc1	.	-1.2
CCN(c1ccccc1)S(=O)(=O)c1ccc(Oc2ccc3c4c2CCCN4CCC3)nc1	.	5.7
CN(C)S(=O)(=O)c1cccc(CSc2nnc(COc3ccccc3F)n2N)c1	.	-3.3
COC(=O)C1=C(CSCc2ccco2)NC(=O)NC1c1ccccc1C (configuration not stated)	0.551	2.3
CCCN1C(=O)S/C(=C\c2cn(CC(=O)N3CCOCC3)c3ccccc23)C1=O	0.398	-1.6
CCOc1ccc(-c2c(=O)n(O)c3ccccc3[n+]2[O-])cc1	-0.396	0.7

Screening data: PubChem, ICCB-Longwood Screening Facility, Harvard Medical School
